SmPrx2 inh: Schistosoma Mansoni Peroxiredoxins (Prx2); Schistosoma mansoni peroxiredoxin 2 (Prx2); S. mansoni Prx2 activity coupled to TGR/GSH (TGR is thioredoxin glutathione reductase), NADPH fluorescence loss, qHTS; some inactives read as strong as hits; Potency, µM; 65,000 tested, 0.07% active; active means full or partial inhibition curve with a strong effect at the top dose; inconclusive means weaker partial or single-point curve; inactive means no accepted curve; also: series up to 57 µM; many of its hits are not listed in these tables
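Prx2 inhibition was measured as reduced NADPH consumption when electrons flowed from NADPH through TGR and glutathione to Prx2 and H2O2. Plates were read kinetically over 8 min; enzyme reagents were held at 4 deg C during dispensing.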
Anthrax LT inh: qHTS Assay for Anthrax Lethal Toxin Internalization | Cells, anthrax lethal toxin internalization, FRET ratio (460/530) | Potency, µM (series often up to 40 µM), for inactives: at the highest dose activity change, negative = inhibition, hits mostly inhibitors | 70,000 tested, 0.67% active; active = well fitted falling ratio curve with the 530 nm signal flat; inconclusive = other ratio curves, or a change in one channel alone; inactive = flat curves in the ratio and both channels; the % refers to the ratio; also: % is scaled to controls: 0 for no effect and ±100 for the full control effect; nearly all actives have a fitted effect of over 50% in size; tested in ME-180 cells; beta-lactamase reporter
* = called active by the depositor; ? = inconclusive; . = not tested or not shown; & = joins results of further samples; [ ] = remark or other dose. Potency is read from the fitted curve at half-maximal effect. Only part of the results is shown (hit frequency here may not be typical).

SMILES	SmPrx2 inh	Anthrax LT inh
Cc1cc(C)n(CCCNCC(O)c2ccccc2)n1 (stereo not given)	>57	5%
CC(C(=O)NCc1ccc2c(c1)OCO2)N1c2cccc3cccc(c23)S1(=O)=O (stereo not given)	>57	?
COc1cccc(-c2nc(CS(=O)(=O)CC(=O)NCCCOC(C)C)c(C)o2)c1	>57	10%
CCCCCn1c(N)c(C#N)c2nc3ccccc3nc21	>57	.
Cc1cc2ncn(C3CC(=O)N(Cc4ccc(N5CCCC5=O)cc4)C3=O)c2cc1C (stereo not given)	>57	-11%
CNC[C@@H](SC)c1ccc(O)c(O)c1	>57	-8%[8 µM]
Cc1nn(C(C)C(=O)O)c2ccccc12 (stereo not given)	>57	8%
CC1CCc2c(C(=O)NCC3CCCO3)csc2C1 (stereo not given)	>57	9%
CCOC(=O)CNC(=O)C1CCCN(c2ncccn2)C1 (stereo not given)	>57	-5%
CCc1nnc(NC(=O)Cn2nc(-c3ccccc3OC)ccc2=O)s1	>57	6%
COc1ccc(N2C(=O)C3CCCN3C2c2ccccc2)cc1Cl (stereo not given)	>57	-4%
COc1cccc(C(=O)Nc2cccc(-c3nnc(-c4ccccc4)o3)c2)c1	.	2µM*
O=C(Nc1ccccc1C(F)(F)F)c1ccc(F)c(S(=O)(=O)N2CCOCC2)c1	>57	?
COc1ccc(OCCCSc2ncccn2)cc1	.	-17%
CCC(=O)Oc1ccc2c(C)c(Cl)c(=O)oc2c1	.	?
C#CCCCC(=S)Nc1ccccc1	>57	1%
Nc1nonc1/C(=N/O)N1CCCC1	>57	11%
O=C(CCN1C(=O)C2C3C=CC(C3)C2C1=O)NCC1CCCO1 (stereo not given)	>57	-5%
COc1ccc(C(C)=O)c2c(O)cccc12	>57	?
Cn1ncnc2c(=O)n(C)c(=O)nc1-2	.	?
O=C(Nc1ccccc1-c1ccccc1)NC1CCN(C(=O)N2CCOCC2)CC1	>57	-1%
O=C1CCCC2C3CCCN4CCCC(CN12)C34 (stereo not given)	>57	7%
O=C(c1cccc(F)c1)N1CCN=C1SCc1cccnc1	>57	9%
Cc1cc(N(CC(=O)O)S(C)(=O)=O)ccc1Br	>57	-17%
OCc1c[nH]c2ccccc12	.	?
SMILES	SmPrx2 inh	Anthrax LT inh
COCC(C)NC(=O)c1cccc(Cl)c1 (stereo not given)	>57	-4%
CCCc1[nH]nc2c1C(c1ccc(OC(=O)N3CCOCC3)cc1)C(C#N)=C(N)O2 (stereo not given)	>57	-5%
Cc1ccc(S(=O)(=O)N2CCCC2C(=O)OCc2ccco2)cc1 (stereo not given)	>57	?
Clc1nc(NCCc2ccccc2)c2ncn(-c3ccccc3)c2n1	>57	0%[8 µM]
O=C(O)c1cc(Nc2nc(N3CCOCC3)nc(N3CCOCC3)n2)ccc1Cl	>57	-1%
Oc1c(Cl)cccc1Cl	.	-2%
O=c1ccc2cc(O)c(O)cc2o1	>57	?
O=C(CSc1ccc2c(c1)OCCO2)Nc1ccc(Cl)cn1	>57	-7%
Cc1ccc(SCCNS(=O)(=O)c2ccc3c(c2)OCCO3)cc1	>57	?
CCOc1cc(CNc2ccc3[nH]c(=O)[nH]c3c2)ccc1OCC(=O)NC(C)(C)C	>57	-7%
Cc1ccc(S(=O)(=O)NCCOc2nc(N(C)C)nc(N3CCOCC3)n2)cc1	>57	?
N#Cc1nc(-c2ccco2)oc1NCCc1ccccc1	>57	?
COc1ccc(N2C(=O)NC3CC2(C)Oc2ccccc23)cc1OC (stereo not given)	>57	0%
CCN(CC(=O)NC(=O)NCc1ccco1)Cc1nc2ccccc2c(=O)[nH]1	>57	2%
CCOc1cccc(C2C(C(=O)c3ccco3)=C(O)C(=O)N2Cc2ccncc2)c1 (stereo not given)	>57	-6%
CCN(CC)P(=O)(C(NC(=O)OC)C(F)(F)C(F)(F)C(F)(F)C(F)F)N(CC)CC (stereo not given)	>57	-8%
COc1cccc2cc(C(=O)C3=C(O)C(=O)N(CCCN4CCOCC4)C3c3ccncc3)oc12 (stereo not given)	>57	?
CCC(=O)Nc1ccccc1C(=O)N1CCOCC1	>57	14%
CS(=O)(=O)N(Cc1ccccc1)c1ccc(C(=O)N2CCOCC2)cc1	>57	-5%
COc1cc(NS(=O)(=O)N2CCCC2)cc(OC)c1OC	>57	2%
O=C(CCc1nc(-c2ccccc2)no1)Nc1cc(C(F)(F)F)ccc1Cl	>57	-11%
O=C(c1ccc(CS(=O)(=O)c2ccccc2)o1)N1CCOCC1	>57	-14%
COc1ccc(-c2ocnc2C(=O)Nc2ccccc2N2CCCCC2)cc1	>57	-23%
COc1ccc2c3c1OC1C[C@@H](O)C=C[C@@]31CCN(C)C2 (stereo not given in full)	>57	5%[3.58 µM]
Cc1nc(N2CCN(c3ccccc3)CC2)nc2c1C(=O)CCC2	>57	-23%
SMILES	SmPrx2 inh	Anthrax LT inh
O=C(NCc1ccccn1)NC12CC3CC(CC(C3)C1)C2	>57	?
S=c1[nH]nc(Cc2ccccc2)n1Cc1ccco1	>57	-7%
Cn1c(=O)c2c(nc3sccn32)n(C)c1=O	>57	-7%
COc1cccc(Nc2nnc(SCn3nnc4ccccc4c3=O)s2)c1	>57	?
Cn1c(SCC(=O)N2CCOCC2)nnc1-c1ccccc1	>57	-19%
O=C(Cc1ccc(S(=O)(=O)N2CCCC2)s1)N1CCOCC1	>57	2%
Cc1cccc(OCC(=O)Nc2cc(C)ccc2O)c1	>57	?
CCOc1ccc2ccccc2c1CNCCN1CCOCC1	>57	4%
Nc1nc2c(s1)CCc1c-2cnn1-c1ccccc1	>57	10µM*
CCOC(=O)CCc1c(C)c2ccc(OCc3nn[nH]n3)cc2oc1=O	>57	?
CCOc1ccc(C=NC23CN4CN(CN(C4)C2)C3)cc1	>57	11%
CC(=O)OCn1nnc2ccccc2c1=O	>57	?
COC(=O)CSc1nsc(SCC(=O)OC)n1	>57	?
COC(=O)Nc1ccc2c(c1)N(C(=O)CCN1CCOCC1)c1ccccc1S2	>57	-14%
O=C(O)c1c(Cl)c(Cl)c(Cl)c(Cl)c1C(=O)N1CCOCC1	>57	-2%
COc1cc2c(N3CCOCC3)cc(O)c(CC(=O)Nc3ccccc3)c2cc1OC	>57	.
O=C(CCCCCN1C(=O)CCC1=O)Nc1ccc(Br)cc1F	>57	-5%
COc1ccc(C)cc1S(=O)(=O)Nc1cccc(Cl)c1	>57	-9%
O=c1/c(=C/c2ccccn2)sc2nc3ccccc3n12	.	-11%
CCOc1nc(-c2ccccc2)ccc1-c1noc(COc2ccccc2)n1	>57	-8%
CCN(CC(=O)O)CC(=O)O	>57	4%[8 µM]
O=C(NCc1cccnc1)c1c[nH]c2cc3c(cc2c1=O)OCCO3	>57	-10%
CCC(c1nnnn1C1CCCC1)N1CCN(c2ccccc2F)CC1 (stereo not given)	>57	0%
CCOc1cccc(NC(=O)C2CC(=O)N(C)C(=Nc3cccc(F)c3)S2)c1 (stereo not given)	?	?
O=C(O)c1cc2n(n1)C(C(F)(F)F)CC(c1ccco1)N2 (stereo not given)	>57	-6%
SMILES	SmPrx2 inh	Anthrax LT inh
O=C(c1ccccc1)N(Cc1ccccc1)c1ccccn1	.	-9%
CC(=O)c1cc(Cc2csc(C(C)=O)c2)cs1	.	10%
O=C(CN1C(=O)NC2(CCCC2)C1=O)Nc1nc(-c2ccc(F)cc2)cs1	>57	?
Cn1c(=O)cc(SCC(=O)NCCCN2CCOCC2)c2ccc(Cl)cc21	>57	-10%
CN1CCN(C(=O)COc2ccc3ccccc3c2Br)CC1	>57	-19%
CCOC(=O)N1CCC(NC(=O)C(NS(=O)(=O)c2ccc3c(c2)CCN3C(C)=O)C(C)C)CC1 (stereo not given)	>57	9%
COCc1cc(C)[nH]c(=O)c1C#N	.	1%
CC1CCc2nc(NC(=O)Cc3cccs3)sc2C1 (stereo not given)	>57	-9%
CC1(C)CC(=O)C=C(NCCCN2CCCC2=O)C1	>57	-4%
OC1C[N+]2(CCCCC2)C1	>57	-5%
Nc1ccccc1CCCC(=O)O	>57	1%[8 µM]
CCn1ncc(CN2CCN(C(=O)Nc3ccccc3C(=O)OC)CC2)c1C	>57	6%
c1ccc2[nH]c(-c3ccnc4ccccc34)nc2c1	>57	-1%
Cc1ccc(C(=O)Nc2ccc(Cl)cn2)cc1	>57	-18%
Cc1ccnc(SCC(=O)O)n1	>57	-4%
CCOCCCN(CCC#N)S(=O)(=O)c1ccc(S(=O)(=O)N2CCCC2)cc1	>57	-9%
CN(Cc1ccccc1)c1nc2c(c(=O)[nH]c(=O)n2C)n1CCOc1ccccc1	>57	?
CCCCN(CC)CCCNC(=O)CS(=O)(=O)Cc1nc(-c2cccc(OC)c2)oc1C	>57	13%
CC1Cc2ccccc2N1C(=O)C12CCC(C)(C(=O)C1)C2(C)C (stereo not given)	.	?
O=C(NCCO)c1nc(NCCO)c2ccccc2n1	>57	5%
CS(=O)(=O)N1CCC2(CCCN(C(c3ccccc3)c3ccccc3)C2)CC1	>57	?
COc1cccc(-n2nnc3c(=O)n(Cc4ccc(C)cc4)cnc32)c1	>57	?
COc1c(S(=O)(=O)N2CCCCC2)ccc2c(S(=O)(=O)N3CCCCC3)cccc12	>57	4%
Cn1c(C(=O)NCCCN2CCN(c3ccc(F)cc3)CC2)cc2c(=O)n(C)c3ccccc3c21	>57	-14%
O=c1c2ccccc2nnn1CSc1nnc(-c2cccs2)n1Cc1ccccc1	>57	-5%
SMILES	SmPrx2 inh	Anthrax LT inh
CC(=NCCCN1CCOCC1)c1c(O)[nH]c(=O)[nH]c1=O	>57	-7%
CN1CCC(c2c[nH]c3ccc(O)cc23)CC1	>57&>57	?
CC(C)CCn1nnnc1C(c1ccccc1)N1CCN(C)CC1 (stereo not given)	>57	-11%
CC(C)n1c(SC2C(=O)CC(C)(C)CC2=O)nc2c1c(=O)n(C)c(=O)n2C	>57	4%
CCn1nnc(-c2ccccc2NC(=O)c2cccc(-n3cnnn3)c2)n1	>57	3%
CCn1cc(C(=O)NCc2ccc3c(c2)OCO3)c(=O)c2cc(F)c(N3CCN(C)CC3)cc21	>57	-18%
CC(C)(C)NC(=O)CSc1nnc(C2CC2)n1Cc1ccccc1	>57	-1%
c1ccc(-c2nc(N3CCCCCC3)nc(-n3ccnc3)n2)cc1	>57	3%
Cn1c(Cn2c(=O)sc3ccccc32)nnc1SCc1ccccc1F	>57	-2%
CCCC1COC(Cn2cncn2)(c2ccc(C)cc2)O1 (stereo not given)	>57	-7%
O=C(Nn1cnc2ccccc2c1=O)C1CCCCC1	>57	-5%
O=C(COc1cc(Cl)c(Cl)cc1Cl)Nn1cnnc1	>57	-1%
CN1CCN(S(=O)(=O)c2ccc(=O)[nH]c2)CC1	>57	0%
COC(=O)C1=C(C)N=c2s/c(=C/c3ccoc3)c(=O)n2C1c1ccccc1 (stereo not given)	>57	1%
COc1cc2c(cc1NC(=O)CC1SC(N3CCCC3)=NC1=O)oc1ccccc12 (stereo not given)	>57	?
CCOC(=O)c1ccc(NS(=O)(=O)c2c(C)n(C)c(=O)n(C)c2=O)cc1	>57	12%
COc1ccc(N2Cc3ccccc3C2)cc1Cl	>57	?
CCC(=O)Nc1cc(OC)c(NC(=O)c2ccccc2)cc1OC	>57	-9%
CCCCOc1ccccc1C1C(C(=O)OC)=C(C)N(C)C(C)=C1C(=O)OC	.	-22%
Cc1ccc(C)c(C(=O)COC(=O)c2ccc(Br)o2)c1	.	-5%
Cc1noc(C)c1COC(=O)CCN1c2ccccc2Sc2ccccc21	>57	-30%
CC1CCc2nn(CC(=O)Nc3c(F)cc(F)cc3Br)cc2C1 (stereo not given)	>57	-27%
COc1cccc(-c2cc(N)nn2C(=O)Nc2ccc(Cl)cc2)c1	>57	?
CN1CCN(C2=C(Cl)C(=O)N(Cc3ccccc3)C2=O)CC1	>57	?
Cc1ccc2occ(CN3CC4CC(C3)c3cccc(=O)n3C4)c(=O)c2c1 (stereo not given)	.	?
SMILES	SmPrx2 inh	Anthrax LT inh
O=C(Nc1cccs1)Nc1ccccc1Cl	>57	-16%
Cc1ccc(S(=O)(=O)NCc2cn3c(C)csc3n2)cc1	>57	3%
O=C(NO)c1ccc(C(=O)N(C2CCCCC2)C2CCCCC2)cc1	.	-3%
CC1(c2ccccn2)Nc2ccccc2-c2nc3ccccc3n21 (stereo not given)	>57	13%
CC(C)=CCC/C(C)=C/CO/N=C1/C[C@@H](O)[C@@H](O)[C@@H]2[C@@H]3C(=O)N(Cc4ccccc4)C(=O)[C@H]3CC[C@@H]12	.	5%[8 µM]
COc1ccc(-n2c(Cc3cccn3C)nnc2SCC(=O)NCC2CCCO2)cc1 (stereo not given)	>57	11%

3 of these compounds, set out differently:
smiles: CC1(c2ccccn2)Nc2ccccc2-c2nc3ccccc3n21 (stereo not given)
  SmPrx2 inh = >57
  Anthrax LT inh = 13%

smiles: CC(C)=CCC/C(C)=C/CO/N=C1/C[C@@H](O)[C@@H](O)[C@@H]2[C@@H]3C(=O)N(Cc4ccccc4)C(=O)[C@H]3CC[C@@H]12
  SmPrx2 inh = .
  Anthrax LT inh = 5%[8 µM]

smiles: COc1ccc(-n2c(Cc3cccn3C)nnc2SCC(=O)NCC2CCCO2)cc1 (stereo not given)
  SmPrx2 inh = >57
  Anthrax LT inh = 11%

Looked up by compound from the entries so far:
SMILES	SmPrx2 inh	Anthrax LT inh
O=C(NO)c1ccc(C(=O)N(C2CCCCC2)C2CCCCC2)cc1	.	-3%
Cc1ccc(S(=O)(=O)NCc2cn3c(C)csc3n2)cc1	>57	3%
COc1ccc(-n2c(Cc3cccn3C)nnc2SCC(=O)NCC2CCCO2)cc1 (stereo not given)	>57	11%
O=C(Nc1cccs1)Nc1ccccc1Cl	>57	-16%

Assay outcomes as filed in PubChem.
